CDC25B CDK2 inh: primary biochemical HTRF screen for blockers of M-phase inducer phosphatase 2 binding to CDK2/cyclin A; P30305+P24941; HTRF CDC25B-CDK2/CyclinA binding, anti-His/anti-Flag; hits give high values; z-score (test concentration not listed); actives 0.72% (n = 94,000);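 further: score is relative to mean and SD of negative controls; strong numbers were not always called active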
TAR Tat displ: TAR RNA-Tat peptide displacers, HIV-1, primary screen, biochemical, FRET, FAM/TAMRA-labeled Tat. HIV-1 TAR RNA, Tat peptide displacement FRET; hits give high values. z-score (concentration not given with the values). actives 0.6% (n = 100,000);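 further: score is relative to mean and SD of negative controls; some compounds called inactive have numbers as strong as hits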
* = called active by the depositor; . = not tested or not shown.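 How the source made its calls: active means z-score from 3 up in half or more of its runs; inactive means the rest.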

Every second line gives: CDC25B CDK2 inh	TAR Tat displ
C=CCN1C=C(OC(=O)COc2ccccc2)c2ccccc2S1(=O)=O
 : -2.21	1.14
CCc1ccc(-c2cc(C)no2)cc1S(=O)(=O)NCc1cccs1
 : .	-0.13
Cc1c(C(=O)Nc2nc3c(s2)CCCC3)oc2ccccc12
 : 0.78	1.56
CCOC(=O)c1c(S(=O)(=O)N2CCOCC2)c(-c2ccccc2)n(-c2ccccc2)c1C
 : -0.04	.
Oc1c(I)cc(I)c2cccnc12
 : .	3.43
O=C(Cn1nc(-c2ccco2)ccc1=O)Nc1ccccc1
 : .	-0.06
COc1cccc(-c2noc(-c3ccccc3OC)n2)c1
 : -3.46	1.06
CCc1ccc2oc(C(=O)N(Cc3ccccc3)C3CCS(=O)(=O)C3)cc(=O)c2c1 (configuration not stated)
 : -2.01	-0.33
CC1CCC(NC(=O)C2(C)Cn3c(cc4occc43)C(=O)N2CCN(C)C2CCCCC2)CC1 (configuration not stated)
 : .	0.99
O=C(Cn1cnc(S(=O)(=O)N2CCOCC2)c1)N1CCN(c2ccc(F)cc2)CC1
 : .	-0.05
CCOC(=O)C1=C(C)Nc2nnnn2C1c1ccccc1Cl (configuration not stated)
 : -1.44	-1.19
CN(C1CCCCC1)S(=O)(=O)c1ccc2c(c1)c(=O)c(C(=O)NCCC1=CCCCC1)cn2C
 : -2	0.15
Cc1c(C(=O)N2CCN(C)CC2)sc2ncn(CC(=O)N3CCOCC3)c(=O)c12
 : -2.75	2.01
Cc1ccc(C)c(-n2c(N)c(C#N)c3nc4ccccc4nc32)c1
 : 0.11	-1.39
Cc1ccc(S(=O)(=O)c2cn(Cc3ccc(F)cc3)c3nc(C)ccc3c2=O)cc1
 : .	-4.76
CC1=NS(=O)(=O)c2cc(S(=O)(=O)CC(=O)Nc3cc(C)cc(C)c3)ccc2N1
 : .	-0.23
c1ccc(CNc2nc3ccccc3c3nc(-c4ccncc4)nn23)cc1
 : 0.03	-0.98
Cn1cc(S(=O)(=O)N2CCOCC2)cc1C(=O)N1CCN(c2ccccc2)CC1
 : .	1.43
Cc1nn(-c2ccc3nnc(C)n3n2)c2c1C(c1cccc(OCc3ccccc3)c1)CC(=O)N2 (configuration not stated)
 : .	0.8
O=C(Nc1cccc(Br)c1)N1CC2CCCN2c2ccccc21 (configuration not stated)
 : .	-2.98
COc1ccc(C2C(C#N)=C(C)NC3=C2C(=O)CC(c2ccc(Cl)cc2)C3)cc1OC (configuration not stated)
 : -0.96	3.57
CCOc1cc(C2NC(=O)c3n[nH]c(C)c32)ccc1O (configuration not stated)
 : -0.69	2.08
CC(CN(C)Cc1ccccc1)OC(=O)c1ccc2c(c1)OCCO2 (configuration not stated)
 : -0.79	2.63
O=C(NCc1csc(-c2cccs2)n1)[C@H]1CSCN1S(=O)(=O)c1ccc(Cl)cc1
 : .	1.05
C=CCSc1nnc(NC(=O)c2cc(=O)c3cc(C)c(C)cc3o2)s1
 : -0.92	0.3
CCCN(C1=NC2CS(=O)(=O)CC2S1)c1cccc(C)c1 (configuration not stated)
 : -1.58	-0.67
O=C(/C=C/S(=O)(=O)c1ccc(Br)cc1)c1ccc(F)cc1
 : -1.44	.
CC(=O)N1N=C(c2ccccc2OCc2ccc(Br)cc2)OC1c1ccncc1 (configuration not stated)
 : .	0.76
CCc1nnc(NC(=O)c2ccncc2)s1
 : -0.82	.
CCCN1C(=O)C2(c3ccccc31)c1c(oc3ccc(C)cc3c1=O)C(=O)N2CCCOC (configuration not stated)
 : -1.07	0.4

The final 2 records of the section above open the next one:
Every second line gives: CDC25B CDK2 inh	TAR Tat displ
CCc1nnc(NC(=O)c2ccncc2)s1
 : -0.82	.
CCCN1C(=O)C2(c3ccccc31)c1c(oc3ccc(C)cc3c1=O)C(=O)N2CCCOC (configuration not stated)
 : -1.07	0.4
CCN(c1ccccc1)S(=O)(=O)c1ccc(-c2cc(C(F)(F)F)on2)s1
 : .	1.22
Cc1ccc2ccc(C(Nc3ccccn3)c3ccc(N(C)C)cc3)c(O)c2n1 (configuration not stated)
 : -1.3	-0.06
CCN(CC)CCCn1cc2c(c1-c1cccc(Br)c1)c(=O)n(C)c(=O)n2C
 : -1.48	2.23
O=C(CSc1nnc2ccc3ccccc3n12)Nc1ccccc1Cl
 : -1.63	2.05
COc1ccc(C2CC(=O)C3=C(C2)Nc2ccccc2NC3c2coc3ccccc3c2=O)cc1 (configuration not stated)
 : -1.18	1.64
CN(CC(=O)N1CCN(c2ccccc2)CC1)c1nnc(N2CCCC2=O)s1
 : 0.46	3.21
COC(=O)c1cc(S(=O)(=O)NCCc2ccc(SC)cc2)cn1C
 : .	0.48
Cc1cc2c(cc3c(=O)n(CCCC(=O)NC(C)c4ccccc4)nc(C)n32)o1 (configuration not stated)
 : -0.8	0.53
Cc1ccc(Cl)c2c1N[C@@H](c1ccncc1)[C@H]1CC=C[C@@H]21
 : -0.15	.
CC(C(=O)N1CCC(N2CCCCC2)CC1)C1CCN(S(=O)(=O)c2cccs2)CC1 (configuration not stated)
 : .	0.78
Cc1ccc(C(=O)CC2(O)C(=O)Nc3ccc(Br)cc32)c(C)c1 (configuration not stated)
 : -1.28	.
CCOC(=O)c1c(C)oc2ccc(OC(C)C(=O)O)cc12 (configuration not stated)
 : -0.51	.
COc1ccc(-c2cccc(NS(=O)(=O)c3ccc(Cl)cc3)c2)nn1
 : .	1.04
O=C(CN1C(=O)CSC1=O)Nc1ccccc1N1CCOCC1
 : 0.15	0.59
CN(C)CCn1c(CCCC(=O)N2CCc3ccccc32)nc2cccnc21
 : .	1.76
O=C(CC1(O)C(=O)N(CCCc2ccccc2)c2ccccc21)c1ccccc1O (configuration not stated)
 : -0.38	-0.12
CC1Cc2cc(S(=O)(=O)N3CCc4ccccc4C3)ccc2N1C(=O)C1CCC1 (configuration not stated)
 : .	2.35
CCCc1oc2ccc(NS(=O)(=O)c3ccccc3)cc2c1C(=O)OCC
 : -0.72	1.34
O=C(O)c1ccccc1S(=O)CCO (configuration not stated)
 : 0.94	2.19
Cc1cc2oc(C(=O)Nc3nnc(CC(C)C)s3)cc(=O)c2cc1C
 : -1.52	0.77
COc1ccc(-c2n[nH]c3c2C(c2ccc(C)cc2)NC3=O)cc1 (configuration not stated)
 : .	-0.19
Cc1cc(C)c2c(=O)n(CC(=O)NC3CCC(C)CC3)sc2n1 (configuration not stated)
 : -0.86	0.18
CNC(=O)Nc1cc(C(C)(C)C)no1
 : -0.6	1.81
CCC1(CC)Cc2ccccc2C(NC(=O)NC(C)C)=C1C#N
 : -1.22	0.28
Cc1nc2c(C)cccn2c(=O)c1NC(=O)c1c(F)cccc1Cl
 : .	0.92
CCOC(=O)c1c(NC(=O)COCc2cc(-c3ccco3)on2)sc(C)c1C
 : .	1.75
NS(=O)(=O)c1ccc(CCNc2nc3c(-c4cccc(F)c4)nnn3c3ccccc23)cc1
 : -0.7	-0.1
O=C(CN1CCCCC1)c1c[nH]c2ccccc12
 : -1.25	-10.1
N#CC1=C(N)Oc2n[nH]c(-c3ccc4c(c3)OCO4)c2C1c1cccc(OC(=O)c2cccs2)c1 (configuration not stated)
 : -0.79	.
Cc1ccc(NC(C(=O)O)c2ccccc2)cc1 (configuration not stated)
 : 0.59	.
O=C1c2cccc3c(O)ccc(c23)C(=O)N1c1ccc(Cl)cc1
 : -1.91	-11.9
COc1ccc(CN2CCc3nc(Nc4ccc5c(c4)OCCO5)ncc3C2)c(OC)c1
 : .	2.13
CC(=O)c1cccc(NC(=O)c2ccc(C(=O)Nc3cccc(C(C)=O)c3)cc2)c1
 : -3.26	.
Cc1ccc(Sc2ncccc2NC(=O)Cc2ccccc2)cc1
 : -0.32	.
O=C(Cn1ncc2c([nH]c3ccccc32)c1=O)N1CCN(c2ccccc2)CC1
 : .	1.05
CN1C(=O)C(O)N(c2ccccc2)C1=O (configuration not stated)
 : -4.77	-0.43
COCc1nc(-c2ccc(-c3ccc(Cl)cc3)nc2OC)no1
 : -1.34	-2.17
Cc1sc2ncn3c(SCC(=O)Nc4ccc(C(F)(F)F)cc4)nnc3c2c1C
 : -1.15	-2.11
COC(=O)c1ccc(C2c3c(oc4ccccc4c3=O)C(=O)N2c2nnc(C(C)C)s2)cc1 (configuration not stated)
 : 1.21	0.72
CCOC(=O)c1nn(-c2ccccc2)c(=O)cc1N1CCCCC1
 : .	-0.26
CCN(CC)CCN1C(=O)c2cc3occc3n2CC1(C)C(=O)NC1CCC(C)CC1 (configuration not stated)
 : .	2.89
OCCN1CCN(C(c2ccc(C(F)(F)F)cc2)c2ccc3cccnc3c2O)CC1 (configuration not stated)
 : -0.48	.
COC(=O)c1c(OC)ccc(NC(=O)NC(=O)c2c(OC)c(Cl)cc(Cl)c2OC)c1OC
 : -0.57	.
O=C(NCCCN1CCCC1=O)c1ccc(NC2=NC3CS(=O)(=O)CC3S2)cc1 (configuration not stated)
 : 0.04	2.66
Cc1ccc(N2C(=O)Nc3ccccc3S2(=O)=O)cc1F
 : .	1.38
CCOC(=O)C(C)(C)Oc1ccc(Cl)cc1
 : -2.14	1.57
C/C(=N\NC(=O)c1cc(C(C)(C)C)[nH]n1)c1ccc(Cl)cc1
 : -2.88	.
Cn1c(=O)oc2cc(S(=O)(=O)CCC(=O)N3CCN(c4ccccc4)CC3)ccc21
 : .	2.64
COc1ccc(-c2csc3ncnc(NCc4ccc(F)cc4)c23)cc1
 : .	1.5
CC1CCc2c(sc3ncnc(NCCCO)c23)C1 (configuration not stated)
 : 0.34	.
O=c1cc(CSc2ccccc2)nc2sccn12
 : -1.03	0.82
CCOC(=O)NC(=O)c1cn(C(C)C)c(=O)n(Cc2ccccc2)c1=O
 : -1.02	.
CC(=O)C1=C(C)NC(=O)CC1
 : -2	.
Cc1ccc(N2CNc3c(sc4nc(C)cc(C)c34)C2=O)cc1
 : -2.85	2.35
CCOC(=O)c1ccc(N2C(=O)c3n[nH]c(-c4ccco4)c3C2c2cccs2)cc1 (configuration not stated)
 : .	-5.33
COc1cc(NC(=O)C2=Cc3sc4c(c3CS2)CCC(C)C4)cc(OC)c1 (configuration not stated)
 : .	-1.36
CCCCOc1ccccc1C1CC(=O)Nc2c1c(C)nn2-c1ccc2nnc(C)n2n1 (configuration not stated)
 : .	0.69
Cc1nnsc1C(=O)Nc1ccccc1N1CCCCC1
 : -0.77	.
CCC1c2ccc(C)n2CCN1C(=O)Nc1ccccc1F (configuration not stated)
 : -0.79	-9.69
Cn1ncc2c(NCc3ccccc3)nc(N3CCCCC3)nc21
 : .	1.99

Sorted by formula weight (largest number first): five of the compounds above
Every second line gives: CDC25B CDK2 inh	TAR Tat displ
COC(=O)c1c(OC)ccc(NC(=O)NC(=O)c2c(OC)c(Cl)cc(Cl)c2OC)c1OC
 : -0.57	.
COC(=O)c1ccc(C2c3c(oc4ccccc4c3=O)C(=O)N2c2nnc(C(C)C)s2)cc1 (configuration not stated)
 : 1.21	0.72
CC(=O)c1cccc(NC(=O)c2ccc(C(=O)Nc3cccc(C(C)=O)c3)cc2)c1
 : -3.26	.
Cc1ccc(Sc2ncccc2NC(=O)Cc2ccccc2)cc1
 : -0.32	.
Cn1ncc2c(NCc3ccccc3)nc(N3CCCCC3)nc21
 : .	1.99

Next part
Every second line gives: CDC25B CDK2 inh	TAR Tat displ
CC(C)CCNC(=O)c1cnc2sc(N3CCCC3)nn2c1=O
 : .	-0.62
COc1ccccc1OCc1nc2cc(C)c(C)cc2[nH]1
 : -0.88	0.14
O=C(CSc1nnc(COc2ccccc2)o1)N1CCCc2ccccc21
 : -0.37	-0.35
Cc1ccc(Cn2nc(C)cc2C(=O)Nc2ccc(C)cc2)cc1
 : -1.33	.
CCN(CCNS(=O)(=O)c1ccc2c(c1)NC(=O)C(C)CS2)Cc1ccccc1 (configuration not stated)
 : .	0.59
COc1ccc(Nc2nc3ccc(C)cc3n3cnnc23)c(OC)c1
 : 0.91	0.51
Cc1ccccc1OCCSc1nc2ccccc2n1C
 : 1.38	-0.11
COc1ccccc1Nc1nc(NCC2CCCO2)c2ccccc2n1 (configuration not stated)
 : -1.93	.
COc1cc(OC)c(NC(=O)N2CCN(c3nc4cc(F)ccc4n4cccc34)CC2)cc1Cl
 : .	0.18
COC(=O)c1sccc1OC(=O)c1ccc(Cl)cc1Cl
 : -1.59	.
COc1ccc(C2CC(=O)C3=C(C2)Nc2ccccc2NC3c2cc(OC)ccc2OC)cc1 (configuration not stated)
 : -1.12	0.79
Cc1cc2c(n1-c1ccc(C(=O)O)cc1)CCC(C)C2 (configuration not stated)
 : 1.97	1.2
O=C(C1COc2cc(S(=O)(=O)N3CCN(c4ccc(F)cc4)CC3)ccc2O1)N1CCOCC1 (configuration not stated)
 : .	0.37
O=C(NC1CCCC1)c1ccc2c(c1)nc1n2CCCC1
 : .	-0.45
CCOc1ccc2c(c1)NC(c1ccccc1)=NC(c1ccc(OC)cc1)=N2
 : 0.15	0.47
COCCNC(=O)C1CCCN(S(=O)(=O)c2c(C)noc2/C=C/c2cccs2)C1 (configuration not stated)
 : 0.73	-0.23
O=C(Nn1cnnc1)c1cccs1
 : -1.81	.
CC(C)(C)[C@H](CO)N=Cc1cccc(C=N[C@H](CO)C(C)(C)C)n1
 : -2.1	.
Cc1ccccc1OCCn1c(N)nc2ccccc21
 : -0.7	0.06
COc1ccc2nc(Nc3nc(-c4ccccc4)cc(=O)[nH]3)nc(C)c2c1
 : -3.38	.

One compound at a time, as listed above.
Listed for OCCN1CCN(C(c2ccc(C(F)(F)F)cc2)c2ccc3cccnc3c2O)CC1 (configuration not stated) → CDC25B CDK2 inh: -0.48; TAR Tat displ: .
Listed for Cc1ccccc1OCCSc1nc2ccccc2n1C → CDC25B CDK2 inh: 1.38; TAR Tat displ: -0.11
Listed for COc1ccc(C2CC(=O)C3=C(C2)Nc2ccccc2NC3c2coc3ccccc3c2=O)cc1 (configuration not stated) → CDC25B CDK2 inh: -1.18; TAR Tat displ: 1.64
